Bioassay records from PubChem BioAssay.
gsp antagonist = qHTS for Antagonists of gsp, the Etiologic Mutation Responsible for Fibrous Dysplasia/McCune-Albright Syndrome: qHTS; gsp-mutant cells, cAMP HTRF, 30 min; control for the full effect not named in the record; Potency, µM (highest dose often 76.9 µM), for the others: at the top dose activity change, negative = inhibition, most hits filed as inhibitors; 340,000 tested, 0.4% active; AID 624288, 2012; active = falling curve of any shape with a large fitted effect; inconclusive = falling curve, mostly with a smaller effect; inactive = flat or rising curve; cell line not stated here;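 also: intracellular cAMP measured with PDE inhibitor Ro 20-1724 present during compound exposure; potency is read from the fitted curve at half-maximal effect; % is scaled to controls: 0 for no effect and ±100 for the full control effect; nearly all actives have a fitted effect of over 65% in size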
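Cells in G418 medium, seeded 16-24 h, 37C; buffer exchange to DPBS + 1 mM CaCl2, 0.5 mM MgCl2, 0.05% BSA; cpds in DMSO + […] (300 uM stock), 30 min 37C; HTRF cAMP detection.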
TRPML1 ag = qHTS for Agonists of the Human Mucolipin Transient Receptor Potential 1 (TRPML1); Mucolipin-1 (Homo sapiens), Q9GZU1; 410,000 tested, 0.12% active; TRPML1-expressing cells, Ca2+ dye fluorescence, FDSS; host cell line not named in the record; reference of the full effect not given here; activation, % (concentration not given with the values); in the data active = activation above about 50%; inconclusive = about 30% to 50%; inactive = below about 30%; also: 0% is about no effect; the text of the record puts the active cut at 80%
Target sequence (Q9GZU1 whole entry, looked up): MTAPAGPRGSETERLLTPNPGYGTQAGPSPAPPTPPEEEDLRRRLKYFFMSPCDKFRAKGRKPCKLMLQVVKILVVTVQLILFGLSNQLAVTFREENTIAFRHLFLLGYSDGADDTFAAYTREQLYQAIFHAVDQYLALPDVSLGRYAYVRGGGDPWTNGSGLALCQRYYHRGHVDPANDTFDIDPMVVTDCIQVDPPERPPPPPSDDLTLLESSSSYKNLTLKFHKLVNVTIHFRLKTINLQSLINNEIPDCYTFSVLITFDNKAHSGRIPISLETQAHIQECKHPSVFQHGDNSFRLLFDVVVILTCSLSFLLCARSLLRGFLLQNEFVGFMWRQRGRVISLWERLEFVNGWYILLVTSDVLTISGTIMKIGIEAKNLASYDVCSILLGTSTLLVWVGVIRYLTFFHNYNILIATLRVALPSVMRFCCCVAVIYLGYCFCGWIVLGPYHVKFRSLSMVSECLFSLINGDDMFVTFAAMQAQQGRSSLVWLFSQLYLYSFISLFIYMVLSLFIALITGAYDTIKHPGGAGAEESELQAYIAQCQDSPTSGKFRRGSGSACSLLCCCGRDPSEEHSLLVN
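TRPML1-DL cells, Tet-induced overnight (~16 h, 37 degrees C), loaded 45-90 min at room temperature with Ca8 no-wash calcium dye plus quencher. FDSS fluorescence: 10 s baseline, compound pin-transfer, 110 s agonist read, then EC80 54-4 (4uM final) and 110 s antagonist read.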
ClpP mod = qHTS Assay for Activators of ClpP; ATP-dependent Clp protease proteolytic subunit (Bacillus subtilis (strain 168)), P80244; purified B. subtilis ClpP, FRET peptide cleavage, 20 min; AID 651965, 2013; Potency, µM (top dose mostly 57.5 µM), without a hit: at the highest dose activity change, negative = active; 340,000 tested, 1.9% active; active = well fitted falling curve with a large enough effect; inconclusive = small, poorly fitted or top-dose-only effect; inactive = no such curve, though single readings can be large or run the other way; also: potency is read from the fitted curve at half-maximal effect; the source files actives as falling curves though it sought activators and does not explain the sign; nearly all actives have a fitted effect of over 65% in size; many hits overshoot -100%
Target sequence (P80244 whole entry, looked up): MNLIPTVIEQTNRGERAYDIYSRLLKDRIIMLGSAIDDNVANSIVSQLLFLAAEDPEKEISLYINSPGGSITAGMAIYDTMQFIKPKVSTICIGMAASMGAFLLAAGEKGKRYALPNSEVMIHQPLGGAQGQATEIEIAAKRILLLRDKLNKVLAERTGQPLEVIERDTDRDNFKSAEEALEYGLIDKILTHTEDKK
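FRET quenching reversal measured ClpP activation: 10 microg/mL B. subtilis ClpP at pH 8 with the FRET-FV decapeptide, read at 430 nm after 320 nm excitation. The 20-min minus 0-min signal was scaled between DMSO/no-enzyme wells and ADEP (5.8 microM final).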
Menin MLL FP FL = qHTS Assay for Inhibitors Targeting the Menin-MLL Interaction in MLL Related Leukemias: Competition With Fluorescein Labeled MLL-derived Peptide | FP activity change, % at 61.4 µM | 290,000 tested, under 10 active | AID 1766, 2009 | Fluorescence polarization, fluorescein-MLL peptide displacement from menin; inconclusive = falling polarisation curve, or a change in total fluorescence; inactive = total fluorescence flat and polarisation flat or rising; no compound was filed as active; the % refers to the polarisation; negative = inhibition;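 also: % of control where 0% means no effect; inhibitors lower the polarisation; unlabelled MLL peptide was the positive control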
TRPML1 blocker = qHTS for Inhibitors of the Human Mucolipin Transient Receptor Potential 1 (TRPML1); Mucolipin-1 (Homo sapiens), Q9GZU1; TRPML1-inducible cells, Ca2+ dye fluorescence, FDSS; stronger effect = lower value; inhibition of EC80 agonist-evoked calcium signal; activity change, negative = inhibition, % (no concentration beside the values); 390,000 tested, 0.02% active; in the data active means activity change below about -50%; inconclusive means about -30% to -50%; inactive means above about -30%;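 also: stimulus is agonist 54-4 at its EC80 concentration; % is scaled to controls: 0 for no effect and ±100 for the full control effect; compound concentration not given in the record; the text of the record puts the active cut at -80%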
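Tet-induced TRPML1-DL cells loaded with Ca8 no-wash calcium dye were read kinetically on FDSS. Compound addition was followed by EC80 agonist 54-4 (4 uM final); inhibition was read over 110 s.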
gsp agonist = qHTS for Agonist of gsp, the Etiologic Mutation Responsible for Fibrous Dysplasia/McCune-Albright Syndrome: qHTS; gsp mutant cells, cAMP HTRF, 30 min; control for the full effect not named in the record; Potency, µM (doses to about 76.9 µM), for the others: at the highest dose activation (cAMP increase), most hits filed as activators; 340,000 tested, 0.13% active; AID 624287, 2012; active = well fitted activation curve with a large enough effect; inconclusive = small, poorly fitted or top-dose-only effect, or another doubt; inactive = no such curve, though single readings can be large or run the other way; cell line not stated here;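 also: phosphodiesterase inhibitor Ro 20-1724 added with compounds to block cAMP breakdown; potency is read from the fitted curve at half-maximal effect; nearly all actives have a fitted effect of over 60% in size; about a fifth of the inactives were tested at one dose only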
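Cells in DMEM/10% FBS with G418 were pretreated with compounds in DMSO plus […] (300 uM stock) for 30 min at 37C. cAMP was measured by HTRF (cAMP-d2 plus anti-cAMP antibody-K) after 30 min at room temperature.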
* marks the source's active call; other numbers are inactive results; u = inconclusive; x = not tested or not shown; [ ] = another dose, or the depositor's remark. Rows were taken by chance; any-hit rate near 2.1%.

SMILES | gsp antagonist | TRPML1 ag | ClpP mod | Menin MLL FP FL | TRPML1 blocker | gsp agonist
COc1ccc(OC)c(CN2CCN(C(=O)CCNC(=O)c3ccc(Br)cc3)CC2)c1 | 1% | 0.6 | -2.6% | x | -4 | 13%
CCOC(=O)C1C(=O)N(C(=O)c2ccc(OC)cc2)CC1c1ccccc1 (stereo not drawn) | 3% | 1.4 | -1.2% | -0.5 | -5 | 0%
COc1cc(NC(=O)c2cc3ccccc3cc2OC)ccc1NC(=O)c1cccs1 | u | 1.9 | u | x | 15 | 24%
COc1cc(C)c(CN2CCC(Cc3ccccc3)CC2)cc1C | -8% | 0.8 | 0.3% | -1.0 | -3 | -12%
CCCn1c(=O)c2c(nc3n2CCCN3CCc2ccc(OC)c(OC)c2)n(C)c1=O | u | 2.0 | -1.5% | -12 | -17 | 5%
COc1ccc(NC(=O)CCSc2nc(-c3ccc(OC)cc3)cc(C(F)(F)F)n2)cc1 | x | 0.0 | -13% | x | 32 | x
CCc1ccc(C(O)(c2ccccc2OC)C(CN2CCOCC2)c2ccccc2)cc1 (stereo not drawn) | x | 0.8 | x | -5.3 | -11 | 5%[15.4 µM]
Cc1ccc(/C=C/C(=O)N2CCc3ccccc32)o1 | 3% | 2.0 | -1.8% | 11 | -2 | 16%
COc1ccc(-c2cc(=O)oc3c(C)c(OCC(=O)N[C@@H](Cc4ccc(O)cc4)C(=O)O)ccc23)cc1 | -16% | x | -8.7% | -1.4 | x | x
COc1ccc(CCNc2ncnc3c2nnn3Cc2ccccc2)cc1OC | -1% | 1.5 | -3.0% | 2.5 | -18 | -10%
N#Cc1c(N)nc2c(c1-c1ccc(Br)s1)CCCC2 | 8% | -0.5 | 0.3% | 1.3 | 2 | 15%
O=C1c2oc3ccccc3c(=O)c2C(c2cccc(O)c2)N1Cc1ccc(F)cc1 (stereo not drawn) | x | 1.4 | -1.2% | x | -10 | x
COc1ccc(C2(c3ccc(OC)cc3)NC(=O)N(CC(=O)Nc3cc(C)on3)C2=O)cc1 | -4% | 0.4 | x | x | -7 | 4%
COc1ccc(C(=O)NCC(c2ccc3c(c2)OCO3)N2CCN(c3ccc(F)cc3)CC2)cc1 (stereo not drawn) | x | 1.9 | -3.4% | x | 28 | x
O=C(O)c1cnn(-c2nc(-c3ccc(Br)cc3)cs2)c1C(F)(F)F | -11% | 1.2 | -26% | 2.5 | 11 | u
COCCNC(=O)C(c1cccc(OC)c1)N(Cc1cccs1)C(=O)Cn1nnc2ccccc21 (stereo not drawn) | -13% | 1.0 | -1.0% | 1.8 | 3 | -14%
N#CCCN1CCN(S(=O)(=O)c2ccc(S(=O)(=O)NC3CC3)cc2)CC1 | 1% | 1.6 | 0.4% | -1.7 | -8 | -32%
CCCCN1CC(C)(C)[C@H](CC(=O)Nc2ccccc2)C1=O | x | 1.9 | -1.9% | x | -3 | -10%
COc1ccccc1CNC(=O)c1oc2c(c1C)-c1nn(Cc3ccc(Cl)cc3)cc1CC2 | x | 2.5 | u | x | 49 | x
CC(=O)[C@H]1CCC2C3CC=C4C[C@@H](O)CC[C@]4(C)C3CC[C@@]21C (stereo partly drawn) | -13% | -1.0 | x | x | -8 | 0%
Cc1ccc(CC2S/C(=C(/C#N)C(=O)N3CCOCC3)N(c3ccccc3)C2=O)cc1 (stereo not drawn) | 2% | 0.1 | 0.8% | 0.1 | 34 | -57%[inhibitor]
COc1cccc(/C=N/NC(=O)CCCC(=O)NC2CCCCC2)c1 | 3% | -0.6 | -9.0% | 5.5 | 1 | 7%[15.4 µM]
O=C(CN(c1ccccc1)S(=O)(=O)c1ccccc1)N/N=C/c1ccco1 | 2% | 1.4 | 1.4% | 0.7 | 7 | 15%
CCc1nnc(NC(=O)CN2C(=O)c3ccccc3C2=O)s1 | 0% | 0.6 | -2.4% | 0.7 | 14 | 17%
Cc1cn(CCC(=O)Nc2ccccc2N2CCOCC2)c2ccccc12 | -5% | -0.8 | -0.3% | 1.7 | 5 | -1%[15.4 µM]
O=C(NCc1nc2cccnc2n1Cc1ccc(F)cc1)c1ccccc1C(F)(F)F | x | 1.1 | -2.2% | x | -5 | x
O=S(=O)(c1ccc(Cl)cc1)N1CCCC(c2nc(-c3ccc(F)cc3)no2)C1 (stereo not drawn) | 1% | 2.2 | 2.5% | x | 79 | x
CCOc1ccc(C(=O)Nc2ccc3[nH]ncc3c2)cc1 | 0% | -0.7 | -6.8% | 1.6 | -8 | 21%
Oc1ccc(-c2n[nH]c(=S)n2Cc2ccccc2)cc1 | -1% | -0.6 | u | 4.5 | -10 | 14%
COc1cccc(C2=CC(c3cc(OC)ccc3OC)n3nnnc3N2)c1 (stereo not drawn) | 32%[activator] | 0.7 | -17% | 1.5 | -10 | -10%

Limited to gsp antagonist (2 entries from above):
SMILES	gsp antagonist
O=C(CN(c1ccccc1)S(=O)(=O)c1ccccc1)N/N=C/c1ccco1	2%
CCc1nnc(NC(=O)CN2C(=O)c3ccccc3C2=O)s1	0%

Next structures:
SMILES | gsp antagonist | TRPML1 ag | ClpP mod | Menin MLL FP FL | TRPML1 blocker | gsp agonist
CCCCCn1c(=O)[nH]c2c(c1=O)CCC2 | 7% | 1.9 | -4.6% | 0.1 | 17 | 3%
O=C(N1CCN(c2ccccc2)CC1)C12CC3CC(CC(C3)C1)C2 | -8% | 0.3 | -0.6% | -0.5 | 7 | -43%[inhibitor]
COc1cc(C(=O)N(C)Cc2cccc(OC)c2OC)ccc1OCC(=O)Nc1cccc(C(F)(F)F)c1 | u | 2.0 | x | x | -5 | 15%[15.4 µM]
COc1cc2c(cc1NC(=O)COc1ccc3ccccc3c1)oc1ccccc12 | 6% | -0.7 | 3.2µM* | 2.7 | -7 | 7%
CCOc1cccc(-c2cc(C(=O)N/N=C/c3ccc(OC)c(CN4CCOCC4)c3)c3ccccc3n2)c1 | -2% | -0.2 | -30% | 4.3 | -4 | -43%[inhibitor]
CCOC(=O)c1c(C)[nH]c(C)c1S(=O)(=O)N1c2ccccc2CC1C (stereo not drawn) | 0% | 0.5 | -1.4% | -0.8 | -6 | 4%
CCc1c(C)nc(SCC(=O)N2CCN(c3ccccc3)CC2)[nH]c1=O | -10% | -0.2 | x | 4.3 | 11 | 11%
COc1ccc(N2CCN(C(=O)c3ccc(CNc4c(N5CCOCC5)c(=O)c4=O)cc3)CC2)cc1 | 4% | -0.3 | 2.3% | -3.5 | -6 | -1%
O=C(Nc1ccc(F)cc1)C1CC(=O)n2ncnc2N1 (stereo not drawn) | 10% | -0.4 | u | 0.7 | -1 | -4%[15.4 µM]
CCCCc1c(C)nc2cc(-c3ccco3)[nH]n2c1=O | 4% | 0.0 | -1.6% | 1.8 | -10 | -8%[15.4 µM]
O=S(=O)(c1ccc(F)cc1)N1CCN=C1SCc1cccc(F)c1 | 1% | 3.2 | -2.8% | x | 77 | u
Cc1ccc2cccc(OCc3ccc(Br)cc3)c2n1 | -26% | 0.1 | x | -6.5 | u | u
OCCC1CN(Cc2ccc(F)cc2)CCN1CCc1ccccc1 (stereo not drawn) | 14% | -0.5 | -1.5% | -3.9 | -4 | -32%[inhibitor]
Cc1cccc(NC(=O)CCC(=O)N/N=C/c2ccncc2)c1 | 15% | 0.9 | 1.8% | -1.6 | -14 | 0%
Cn1c(SCc2c(F)cccc2Cl)nc2ccccc2c1=O | 11% | 5.2 | -7.0% | x | -17 | u
Cc1ccc(/C=C/C(=O)N2CCN(c3cccc(C(F)(F)F)c3)CC2)cc1 | -11% | 0.2 | 4.3% | 1.5 | 8 | 0%[15.4 µM]
COC(=O)[C@@H](NC(=O)NCc1cccc(OC)c1)C(C)C | -2% | 0.7 | -1.7% | -1.1 | -7 | -16%
CSc1ccc(-c2nnn(Cc3ccccn3)n2)cc1 | 7% | 1.2 | -1.8% | 3.0 | 32 | -27%
Cn1cc(S(=O)(=O)CC(=O)N2CCCc3ccccc32)c2ccccc21 | 10% | -0.5 | 1.6% | 0.2 | -4 | -2%
COc1ccc(CCN(C)C(=O)CCNC(=O)c2ccc(Br)cc2)cc1OC | 7% | 0.7 | -0.1% | 2.1 | 0 | -8%
O=C(Nc1ccc2ccccc2c1)c1ccccc1O | u | 1.7 | x | 1.8 | 6 | u
CCn1ncc(CN2CCCC(C(=O)c3cccc(OC(C)C)c3)C2)c1C (stereo not drawn) | -7% | 0.4 | -18% | -4.0 | -8 | 26%
COc1ccc(OC)c(-c2cc(C(=O)Nc3sc4c(c3C#N)CCC(C)C4)c3ccccc3n2)c1 (stereo not drawn) | 4% | -0.4 | -4.2% | 2.2 | -5 | 10%
CC(NC(=O)C(=O)N/N=C\c1cccc([N+](=O)[O-])c1)c1ccccc1 (stereo not drawn) | -5% | -0.3 | x | 2.7 | 10 | 12%[15.4 µM]
CCCCCN1C=CC(=C2C(=O)c3ccccc3C2=O)C=C1 | 3% | 2.2 | -0.4% | u | -7 | -7%
O=C(CSc1nc(-c2ccc(F)cc2)nc2c1Cc1ccccc1O2)Nc1ccc(C(=O)O)cc1 | -5% | 0.8 | 2.6% | u | -24 | -30%
CCC(=O)Nc1ccc2nc3c(=O)[nH]c(=S)[nH]c3nc2c1 | -15% | 0.9 | -1.6% | u | 31 | u
CC1=C(C(=O)OCC2CCCO2)C(c2ccc(C)cc2)C2=C(CC(C)(C)CC2=O)N1 (stereo not drawn) | 3% | 0.9 | 3.6% | -3.8 | -7 | -43%[inhibitor]
Cc1noc(C)c1S(=O)(=O)N1CCCC(C(=O)N2CCN(C3CCCCC3)CC2)C1 (stereo not drawn) | 2% | 0.1 | 1.0% | -1.1 | 2 | -16%
Cc1cc2nc(-c3ccc(SCc4ccc(C#N)cc4)nc3)[nH]c2cc1C | -14% | 1.8 | u | 3.4 | 15 | 25%
C[C@@H]1CN([C@@H](C)CO)C(=O)CCCn2nncc2CO[C@H]1CN(C)Cc1ccc2c(c1)OCO2 | x | 0.4 | 2.0% | x | 3 | -33%[inhibitor]
CN(C)C(=O)COc1ccc2ccc(=O)oc2c1 | 2% | 0.8 | 32µM* | -0.9 | -1 | -9%
COC(=O)c1cc(Br)c(=O)n(Cc2ccco2)c1 | -6% | -0.4 | u | 1.2 | -5 | -46%[inhibitor]
